High-throughput results deposited in PubChem BioAssay by several laboratories.
RGS16-Gao HTS – modulates binding between human RGS16 and Galphao; O15492+P09471; bead-based flow cytometry RGS16-Galphao binding, fluorescence; actives lie on both sides; binding response (% of control), % at 10 µM; 220,000 compounds, 0.38% hits; AID 1441;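 active means below 25% or above 175%, edge rows of some plates excepted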;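 further: Galphao activated by GDP with aluminum fluoride before binding; 100% = wells without compound and 0% = beads without RGS; some results beyond the cut were filed as inactive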
PKD1 kinase inh – PKD1 (human) kinase inhibition | Q15139 | PKD1 kinase fluorescence polarization assay | inhibition, %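 (about 10 µM by stock and volumes)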 | 200,000 compounds, 0.056% hits | AID 797;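 active means inhibition of 50% or more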;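 further: controls were vehicle for no effect and a reference inhibitor for full effect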
Target sequence (Q15139 whole entry, looked up): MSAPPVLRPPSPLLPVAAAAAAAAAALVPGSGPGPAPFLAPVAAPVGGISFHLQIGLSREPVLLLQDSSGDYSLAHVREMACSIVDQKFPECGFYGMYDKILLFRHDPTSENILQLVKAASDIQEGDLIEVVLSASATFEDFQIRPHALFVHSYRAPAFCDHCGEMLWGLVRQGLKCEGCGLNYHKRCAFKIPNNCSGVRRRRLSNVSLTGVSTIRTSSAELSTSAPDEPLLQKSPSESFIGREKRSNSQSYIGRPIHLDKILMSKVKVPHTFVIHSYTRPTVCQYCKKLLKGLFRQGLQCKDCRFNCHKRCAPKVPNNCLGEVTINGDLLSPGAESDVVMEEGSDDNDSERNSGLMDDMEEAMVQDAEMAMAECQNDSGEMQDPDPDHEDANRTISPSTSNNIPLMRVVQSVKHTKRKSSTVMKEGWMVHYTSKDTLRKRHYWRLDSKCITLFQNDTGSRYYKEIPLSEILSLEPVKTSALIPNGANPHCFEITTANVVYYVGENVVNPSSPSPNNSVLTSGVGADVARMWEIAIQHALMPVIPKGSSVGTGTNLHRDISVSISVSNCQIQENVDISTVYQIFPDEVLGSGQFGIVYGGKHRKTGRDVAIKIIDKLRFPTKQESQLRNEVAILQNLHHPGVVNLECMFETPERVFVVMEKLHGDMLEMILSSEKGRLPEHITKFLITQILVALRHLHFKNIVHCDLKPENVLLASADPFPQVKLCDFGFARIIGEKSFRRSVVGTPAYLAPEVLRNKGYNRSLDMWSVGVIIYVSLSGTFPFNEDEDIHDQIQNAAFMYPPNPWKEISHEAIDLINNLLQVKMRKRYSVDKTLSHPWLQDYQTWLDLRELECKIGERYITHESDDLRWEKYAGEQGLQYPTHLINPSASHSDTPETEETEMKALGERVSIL
Insulin prom inh – TRM-6 insulin promoter activity inhibition | 130,000 compounds, 0.9% hits | inhibition, % at 2 µM | TRM-6 cells (human fetal islet line), insulin promoter-eGFP reporter, imaging; reporter expression induced with tamoxifen;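 active means inhibition above the mean plus 3 SD, with well images judged a real hit on visual review, cut at about 60% in these data, passing the limit was not always enough; inconclusive means inhibition over the cutoff but images rejected on review; inactive means inhibition not above the cutoff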
GALR2 agonist – GALR2 (human) receptor agonism. GALR2-expressing cells, agonist activation read-out. activation, %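 (tested at 5 µM)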. 140,000 compounds, 0.48% hits. AID 803;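 active means above mean plus 3 SD of all compounds, about 5% in these data, not always enough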;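 further: 0% = vehicle buffer wells and 100% = reference agonist at full effect; tested in CHO reporter cells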
HSV augment – HSV replication enhancement; maximum fold increase; HSV replication augmentation in cells, fold increase; 220,000 compounds, 0.005% hits; AID 1956;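 active means peak rise of 1.5-fold or more in the series; inconclusive means self-fluorescent or not available for retest; tested in PC3 cells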;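 further: first round at 10 µM; read as green reporter fluorescence; hits show the peak of a series up to 25 µM; 1 = signal of infected wells without compound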
Insulin prom inh cell count – recorded beside Insulin prom inh, whose call it bears; normalized cell count, %; measured here: cell count, toxicity; reference of the scale not given here;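 cells exposed to compound for 48 h; stained nuclei by imaging scaled within each plate; lower means fewer cells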
HSV augment primary fold – recorded beside HSV augment, whose call it bears; fold increase; compound at 10 µM; measured here: primary screen fold increase 10 uM; tested in PC3 cells;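 GFP signal in the first replicate; 1 = infected wells without compound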
Numbers without * were called inactive; i = inactive; ? = inconclusive; . = not tested or not shown. The list is partial (hit frequency here may not be typical).

The first 13 records, ahead of the listing:
SMILES	RGS16-Gao HTS	PKD1 kinase inh	Insulin prom inh	Insulin prom inh cell count	GALR2 agonist	HSV augment	HSV augment primary fold
COc1ccc(CCNCc2ccc(C)s2)cc1OC	99	2	0	112	.	i	1
Cc1ccccc1C1=NCC(=O)N(CC(=O)N2CCCCC2)c2sc(C)c(C)c21	99	1	21	100	0.0	i	1
CCOC(=O)C1(CCOc2ccccc2)CCN(Cc2ccc(C)s2)CC1	102	-8	.	.	.	i	0.97
CCCCOc1ccc(CC2C(=O)N(C)C(=O)N(C)C2=O)cc1	92	3	.	.	-0.6	i	0.78
CCCCn1c(O)c(C(=O)/C=C/c2ccc3c(c2)OCO3)c(=O)[nH]c1=O	89	.	.	.	.	i	0.8
CCOC(=O)C(NC(=O)CCl)(Nc1ccc(C(O)(C(=O)OCC)C(F)(F)F)cc1)C(F)(F)F (centres undefined)	98	-11	-40	160	0.9	i	0.9
Cc1ccc2c(c1)C1CN(C)CCC1N2C(=O)c1cn(-c2ccccc2)nc1-c1ccccc1 (centres undefined)	104	3	-150	89	.	i	0.75
CN1C(=O)C(=Cc2ccc(N(C)C)c([N+](=O)[O-])c2)C(=O)N(C)C1=O	99	1	57	130	.	i	0.93
CCOC(=O)c1c(NC(NC(=O)CF)C(Cl)(Cl)Cl)sc2c1CCCC2 (centres undefined)	100	-5	.	.	0.1	i	0.89
COc1cc(C2SCC(=O)Nc3c2c(C)nn3-c2ccccc2)cc(OC)c1OC (centres undefined)	100	1	.	.	-1.8	i	1.1
Cc1ccc2c(c1)C(c1ccccc1)NCC(=O)N2 (centres undefined)	110	-7	-162	51	-0.7	i	0.95
Cn1cccc1/C=C1\C(=O)NC(=O)N(Cc2ccco2)C1=O	90	0	.	.	.	?	.
CC(C)c1ccc(N=Nc2c(O)[nH]c(=O)[nH]c2=O)cc1	100	.	.	.	.	i	0.94

All compounds of this part, from the first entry:
SMILES	RGS16-Gao HTS	PKD1 kinase inh	Insulin prom inh	Insulin prom inh cell count	GALR2 agonist	HSV augment	HSV augment primary fold
COc1ccc(CCNCc2ccc(C)s2)cc1OC	99	2	0	112	.	i	1
Cc1ccccc1C1=NCC(=O)N(CC(=O)N2CCCCC2)c2sc(C)c(C)c21	99	1	21	100	0.0	i	1
CCOC(=O)C1(CCOc2ccccc2)CCN(Cc2ccc(C)s2)CC1	102	-8	.	.	.	i	0.97
CCCCOc1ccc(CC2C(=O)N(C)C(=O)N(C)C2=O)cc1	92	3	.	.	-0.6	i	0.78
CCCCn1c(O)c(C(=O)/C=C/c2ccc3c(c2)OCO3)c(=O)[nH]c1=O	89	.	.	.	.	i	0.8
CCOC(=O)C(NC(=O)CCl)(Nc1ccc(C(O)(C(=O)OCC)C(F)(F)F)cc1)C(F)(F)F (centres undefined)	98	-11	-40	160	0.9	i	0.9
Cc1ccc2c(c1)C1CN(C)CCC1N2C(=O)c1cn(-c2ccccc2)nc1-c1ccccc1 (centres undefined)	104	3	-150	89	.	i	0.75
CN1C(=O)C(=Cc2ccc(N(C)C)c([N+](=O)[O-])c2)C(=O)N(C)C1=O	99	1	57	130	.	i	0.93
CCOC(=O)c1c(NC(NC(=O)CF)C(Cl)(Cl)Cl)sc2c1CCCC2 (centres undefined)	100	-5	.	.	0.1	i	0.89
COc1cc(C2SCC(=O)Nc3c2c(C)nn3-c2ccccc2)cc(OC)c1OC (centres undefined)	100	1	.	.	-1.8	i	1.1
Cc1ccc2c(c1)C(c1ccccc1)NCC(=O)N2 (centres undefined)	110	-7	-162	51	-0.7	i	0.95
Cn1cccc1/C=C1\C(=O)NC(=O)N(Cc2ccco2)C1=O	90	0	.	.	.	?	.
CC(C)c1ccc(N=Nc2c(O)[nH]c(=O)[nH]c2=O)cc1	100	.	.	.	.	i	0.94
C(#CCN1CCCCC1)COCc1ccccc1	111	-6	.	.	.	i	1
Cn1c(=O)c2c(nc(N/N=C/c3c(O)n(-c4ccccc4)c(=S)[nH]c3=O)n2C)n(C)c1=O	96	-5	-29	104	-0.6	i	0.94
CCNC(=O)NC(=O)C(C)OC(=O)c1c(C)nn(Cc2ccccc2)c1Cl (centres undefined)	96	-1	10	116	-1.1	i	0.97
CCn1cc(C(=O)N2CCCCC2)c2ccccc21	97	-2	.	.	.	i	0.93
CCOCCCNC(=O)C1c2cc(OC)c(OC)cc2C(=O)N2CCCCC12 (centres undefined)	104	-20	-56	103	-2.1	i	1
CSc1ccccc1C(=O)C1CCCN(Cc2ccn[nH]2)C1 (centres undefined)	107	-9	-39	186	.	i	0.98
COc1ccc(N2C(=O)NC(=O)/C(=C/c3ccc(N4CCOCC4)cc3)C2=O)cc1	75	-4	0	104	.	i	1.1
CCOC(=O)c1c(N)n(CCCOC(=O)c2ccco2)c2nc3ccccc3nc12	80	-3	.	.	1.1	i	0.99
C/C(=N\N1CCN(C)CC1)c1c(O)[nH]c(=O)[nH]c1=O	105	2	.	.	0.2	i	0.95
O=C(O)c1[nH]c(=O)[nH]c(=O)c1F	104	.	.	.	.	i	1
CC(C)CN(CC(C)C)c1ccc(C=C2C(=O)NC(=S)NC2=O)cc1[N+](=O)[O-]	108	-4	17	73	0.1	i	0.94
CCOC(=O)C(O)(c1ccc(NC(=O)c2ccco2)c(OC)c1)C(F)(F)F (centres undefined)	82	6	3	120	0.5	i	0.94
Cc1nn(CCC#N)c2c1P(=S)(N1CCCC1)OC(c1ccc(F)cc1)=N2 (centres undefined)	87	8	.	.	-0.9	i	1.1
COc1ccccc1OCC(=O)Nc1ccc(Cl)cc1C(=O)c1ccccc1	102	6	-79	60	-1.5	i	0.78
Cc1nn(-c2ccccc2)c(Cl)c1C1C(C#N)=C(N)Oc2c1c(=O)oc1ccccc21 (centres undefined)	102	3	7	172	-3.1	i	1
O=C(N/N=C/c1c(O)n(-c2ccccc2)c(=S)[nH]c1=O)c1ccccc1	101	.	.	.	.	i	1
COc1cc(C(c2c(O)c3ccccc3oc2=O)c2c(C)n(C)n(-c3ccccc3)c2=O)ccc1O (centres undefined)	108	-5	15	128	-0.6	i	0.94
Cn1c(O)c(C(=Nc2ccccc2)SCc2ccc(Cl)cc2)c(=O)n(C)c1=O	101	.	.	.	.	i	1.1
CNC(=O)OCCc1nccn1C	111	5	8	112	-2.1	i	1
CCCCCP(=O)(O)c1ccccc1	104	1	3	114	-1.4	i	1.2
Cc1ccc(S(=O)(=O)NC(CC(=O)N2CCC3(CC2)OCCO3)c2ccco2)cc1 (centres undefined)	105	-1	.	.	-0.1	i	0.94
CCCc1nnc(NC(=O)CCC(=O)N2CCN(CCOC(c3ccccc3)c3ccccc3)CC2)s1	103	-13	-6	140	-1.5	i	0.89
O=c1c2ccccc2nc(-c2ccc(Cl)cc2Cl)n1-c1nccs1	107	-8	-40	82	-0.1	i	0.99
Cc1cc(/C=C2/C(=O)NC(=O)N(Cc3ccco3)C2=O)c(C)n1-c1ccccc1O	101	.	.	.	.	i	1
COc1cc2c(cc1OC)C13CCN4CC5=CCOC6CC(=O)N2C1C6C5CC43 (centres undefined) (tested in a mixture with another compound)	101	.	.	.	.	i	1.1
CCCCC(CC)COCCCN=Cc1c(O)[nH]c(=S)[nH]c1=O (centres undefined)	100	.	.	.	.	i	1
CC(=O)c1c(O)n(-c2cccc(Cl)c2)c(=O)[nH]c1=O (tested in a mixture with another compound)	98	.	.	.	.	i	0.99
CCN1C(=O)CC(c2cccnc2)=Nc2ccccc21	108	-4	.	.	.	i	0.95
CCOc1ccccc1NC(=O)N1CCC2(CC1)OCCO2	102	-6	.	.	-1.3	.	.
CCn1c(P(C)(=O)O)nc2ccccc21	99	2	.	.	-0.3	i	0.94
Cn1c(O)c(C(c2ccccn2)c2c(O)n(C)c(=S)n(C)c2=O)c(=O)n(C)c1=S	98	0	.	.	-0.8	.	.
O=C1NC(=O)C(=Cc2ccccc2OCCOc2ccc([N+](=O)[O-])cc2)C(=O)N1	100	-7	-7	62	.	i	0.88
CCC(C)N1C(=O)NC(=O)C2(Cc3cc(C)ccc3N(C)C2)C1=O (centres undefined)	98	-8	37	111	-1.0	i	1.1
CC(=NCCC1=CCCCC1)c1c(O)[nH]c(=O)[nH]c1=O	130	-4	36	75	-1.2	i	0.95
Cc1ccc2cccc(OC(=O)N3CCCC3)c2n1	97	2	24	127	-0.7	i	0.98
CCCCn1c(=O)c(C(=O)Nc2ccsc2C(=O)OC)c(O)c2ccccc21	100	-1	.	.	-1.1	i	1.1
CC(=O)Nc1ccccc1C(=O)OCC(=O)c1cccc2ccccc12	106	-6	-29	106	-3.2	i	0.92
Following part:
SMILES	RGS16-Gao HTS	PKD1 kinase inh	Insulin prom inh	Insulin prom inh cell count	GALR2 agonist	HSV augment	HSV augment primary fold
CC(Cc1ccccc1)NC(=O)NC(C)Cc1ccccc1 (centres undefined)	104	-2	45	84	-0.8	i	0.9
COc1cccc(/C=C2\N=C(c3cncc(Br)c3)OC2=O)c1	110	-1	.	.	-1.8	i	1
CC(C)(C)c1ccc(OC(=O)N2CCCCC2)cc1	110	1	.	.	.	i	0.88
COc1ccc(-n2c(O)c(C=NCCCn3ccnc3)c(=O)[nH]c2=O)cc1	100	-2	-39	78	0.5	i	0.99
Cc1ccc2nc(-c3ccncc3)cc(C(=O)N3CCC4(CC3)OCCO4)c2c1	105	-3	62	150	-0.9	i	0.99
Cc1cccc(-n2c(O)c(/C=N/NC(=O)c3ccncc3)c(=O)[nH]c2=O)c1	98	.	.	.	.	i	1.1
CCN(CC)c1ccc(CN2CC=C(c3ccc(F)cc3)CC2)cc1	104	-11	50	107	-1.4	i	0.92
Cc1cc(C(=O)C[N+]23CCN(CC2)CC3)c(C)n1-c1ccc(Br)cc1	101	-6	.	.	.	i	0.9
CCC(C)N1C(=O)/C(=C\c2cc3c4c(c2)CCCN4CCC3)C(=O)NC1=S (centres undefined)	98	11	11	115	-1.5	i	1.3
CCCC1(CCC)C(=O)NC(=Nc2ccc(C)cc2)NC1=O	95	-4	.	.	.	i	0.97
CCN(CC)c1ccc(CC2C(=O)N(C)C(=O)N(C)C2=O)cc1	94	9	.	.	-0.5	.	.
O=C(N/N=C/c1c(O)n(Cc2ccccc2)c(=O)[nH]c1=O)c1ccccc1O	91	16	43	77	0.4	i	1
Fc1c(F)c(F)c(N2CCNCC2)c(F)c1F	99	-6	.	.	.	i	0.99
CCCCn1c(O)c(/C=N/NC(=O)c2ccncc2)c(=O)[nH]c1=S	103	.	.	.	.	i	1.2
CCCCn1c(O)c(C(C)=NC(Cc2c[nH]c3ccccc23)C(=O)OC)c(=O)[nH]c1=O (centres undefined)	98	-3	25	70	0.4	i	0.83
Cn1ccnc1P(=S)(c1nccn1C)c1nccn1C	97	-6	.	.	-2.3	i	0.82
CCCCOc1ccc(CN2CCN(CCO)CC2)cc1	103	3	60	139	-2.3	i	0.87
N#CCN1CCN(c2ccc(C(F)(F)F)cc2)CC1	114	6	-8	154	-0.7	i	0.98
CC(C)(C)c1ccc(O)c(CN2CCN(c3ccccc3)CC2)c1	101	-12	82*	63*	-1.2	i	1
O=C(Nc1ccc(Cl)cc1C(=O)c1ccccc1)c1ccco1	102	-4	16	116	-2.0	i	0.94
Cc1ccc(-n2c(O)c(C=NCCN(C)C)c(=O)[nH]c2=O)cc1	103	-6	-71	131	-2.1	i	0.97
O=c1[nH]c(=O)n(CCC2=CCCCC2)c(O)c1C=NCCN1CCNCC1	100	-5	24	50	-0.3	.	.
O=C1NC(c2cccnc2)Nc2sc3c(c21)CCCC3 (centres undefined)	23*	0	31	90	-0.9	i	0.85
O=C(NCCCn1ccnc1)C(Cl)(Cl)Cl	100	9	42	88	.	i	1.1
C[N+](C)(C)c1ccccc1	113	2	-7	127	.	i	0.82
COc1ccc(C)cc1NC1=NCCCS1	101	0	-28	125	.	i	1
Cn1c(=O)cc(OCC(=O)N2CCN(C3CCCCC3)CC2)c2ccccc21	99	7	.	.	-0.6	i	0.96
COC(=O)CSC1=NP(=S)(SCC(=O)OC)N2CCCC2=C1C#N (centres undefined)	97	-2	29	171	-0.9	i	1
CCc1ccc(OCC(=O)N2CCN(Cc3ccc4c(c3)OCO4)CC2)cc1	106	-5	.	.	.	i	1
CN(C)C(CNC(=O)Cc1c(Cl)cccc1Cl)c1ccccc1 (centres undefined)	101	-8	.	.	.	i	0.77
CC(=NCC1CCCO1)c1c(O)n(C)c(=O)n(C)c1=O (centres undefined)	-18*	-4	-21	68	-2.5	i	0.88
N#Cc1ccc(/C=C/C(=O)O)cc1	97	.	.	.	.	i	0.92
